# eIF4H inh = inhibitors of RNA binding by human eIF4H | Q15056 | eIF4H fluorescence polarization binding assay | inhibition, % at 35 µM | 290,000 compounds, 0.94% hits;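 active means 50% or more with normal probe brightness, or confirmed in later tests; about a fifth of its hits are not listed in these tables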;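 further: calls also rest on retests at 20 µM and on dose response follow-up; 0% = protein and probe with vehicle and 100% = probe without protein; strong numbers were not always called active; many hits fall short of the cut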
# PABP FP inh = PABP-poly(A) binding inhibition. P11940. PABP-poly(A) RNA binding, fluorescence polarization. inhibition, % at 35 µM. 290,000 compounds, 1% hits. AID 2014;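 active means 50% or more with normal probe brightness, or confirmed in later tests; about a fifth of its hits are not listed in these tables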;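 further: calls also rest on retests at 20 µM and on dose response follow-up; controls were probe without protein and protein plus probe with vehicle; some compounds called inactive have numbers as strong as hits; many hits fall short of the cut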
# Rce1 inh = inhibitors of yeast Ras-converting enzyme. Q03530. AID 2563. 290,000 compounds, 0.27% hits. yeast membranes, quenched prenylated peptide cleavage fluorescence. calls only;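 active means fall in fluorescence gain of 50% or more versus controls, with final raw signal at or below 3038400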;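 further: plate controls were neutral control wells for no effect and wells lacking membranes for full effect; tested at 10 µM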
# Target sequence (Q03530 whole entry, looked up): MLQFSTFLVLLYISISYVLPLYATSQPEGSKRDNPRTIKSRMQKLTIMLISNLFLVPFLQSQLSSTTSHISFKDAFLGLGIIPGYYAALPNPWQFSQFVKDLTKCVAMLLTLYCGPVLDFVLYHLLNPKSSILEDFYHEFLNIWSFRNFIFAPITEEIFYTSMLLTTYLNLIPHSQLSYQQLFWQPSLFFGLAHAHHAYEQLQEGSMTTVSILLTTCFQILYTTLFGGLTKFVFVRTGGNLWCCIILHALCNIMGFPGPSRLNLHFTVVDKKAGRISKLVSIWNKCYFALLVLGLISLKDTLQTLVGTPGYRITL
# CSC inhib = blocks cancer stem cells. cancer stem cell-like cells viability, luminescence. inhibition, % at 7.5 µM. AID 2717. 300,000 compounds, 1.1% hits;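 active means mean at 75% or more and at least half the replicates too; tested in HMLE shEcad cells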;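 further: 0% = median of negative and 100% = median of positive control wells; the first replicate is given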
# MT1-MMP act inh = inhibitors of human MT1-MMP activation | P50281 | HT1080 RFP-PRO-GFP cells, GFP/RFP ratio fluorescence, overnight; percent of plate control window, DMSO zero | GFP/RFP ratio change, % at 20 µM | 360,000 compounds, 0.061% hits;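 active means GFP/RFP ratio change of at least 30% with cell ATP level not reduced by more than half and red fluorescence within 50% of control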; further: strong numbers were not always called active
#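 Assay system: HT1080 RFP-PRO-GFP cells | Dosing: 20 µM single dose, 1% DMSO | Incubation: Cells overnight before dosing, compound overnight, 37 °C, 5% CO2 | Evaluation: GFP/RFP fluorescence ratio | Control set: DMSO-only wells and HT1080 RFP-L50D-GFP cell wells as references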
# Env fusion inh = blocks HIV Env-driven cell-cell fusion; 360,000 compounds, 1.1% hits; HeLa-JRFL Env/CEM21 cell fusion, luciferase; inhibition, % at 12.3 µM; AID 651610;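 active means mean replicate inhibition score of at least 50 and every replicate individually at or above 50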;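 further: 0% = plate neutral controls and 100% = maraviroc near 300 nM; one replicate is shown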
# UUG fidelity = alters start codon recognition fidelity in yeast; S. cerevisiae UUG-firefly luciferase reporter, luminescence/redox ratio; activity score, % at 18.7 µM; 350,000 compounds, 0.13% hits;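 active means replicate mean at a twofold rise or more, about +100% in these data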;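 further: firefly luciferase made from a UUG start codon reports start codon fidelity; reporter light over untreated wells divided by growth signal over untreated wells; some hits fall short of that in this replicate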
# eIF4H inh retest = recorded beside eIF4H inh, whose call it bears; inhibition, %; compound at 20 µM; confirmation average;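 mean of two retest wells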
# PABP FP inh retest = recorded beside PABP FP inh, whose call it bears; inhibition, %; compound at 20 µM; confirmation repeats;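 mean of two retest wells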
# MT1-MMP act inh RFP = also measured in MT1-MMP act inh; calls as there; RFP signal change, %; measured here: RFP expression control read;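 0 = vehicle wells; hits needed this value within 50% of zero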
# * marks the source's active call; other numbers are inactive results; i = inactive; · = not tested or not shown; & = joins results of further samples.
SMILES,eIF4H inh,PABP FP inh,Rce1 inh,CSC inhib,MT1-MMP act inh,MT1-MMP act inh RFP,Env fusion inh,UUG fidelity,others
O=C(NNC(=O)C1CCN(S(=O)(=O)c2cccc(C(F)(F)F)c2)CC1)C1CC1,-3.7,-0.1,i,-10.4,3.4,3.1,9.8,·,
O=C(Cc1cccs1)Nc1ccc2c(c1)C(=O)OC2,-1.9,17.6,i,2.0,6.6,0.7,·,·,
Cn1c(=O)c2c(nc(Sc3ncccn3)n2Cc2ccccc2Cl)n(C)c1=O,0.0,3.9,i,-4.2,-0.6,0.7,·,-3.2,
COc1ccc(CCNC(=O)CO/N=C/c2cc3c(cc2Br)OCO3)cc1OC,12.2,-2.6,i,1.6,2.0,2.0,12.3,20.3,
Cc1ccc(CS(=O)(=O)CCC(=O)NCCC2=CCCCC2)cc1,-11.2,-15.4,i,-0.1,5.5,1.3,12.4,·,
CCCCCOc1cccc(C2C(C(=O)c3cccs3)=C(O)C(=O)N2CCN2CCOCC2)c1 (stereo unspecified),·,·,i,-13.6,2.7,3.8,11.2,·,
O=C(CCCCCNc1nc(=S)[nH]c2ccccc12)N1CCN(c2ccccn2)CC1,-11.3,-6.0,i,-6.5,0.3,-7.8,21.2,-18.6,
Cc1nc(COc2ccccc2Cl)sc1-c1ccnc(N)n1,0.0,-5.3,i,13.0,-1.5,-6.5,-14.2,·,
O=S(=O)(Nc1ccncc1Cl)c1cccc(Cl)c1Cl,-6.4,4.3,i,-5.1,-1.7,-2.0,8.2,·,
CC(O)[C@H]1CNC(=O)C(=O)N1CCc1cc(C(F)(F)F)cc(C(F)(F)F)c1 (stereo partly specified),1.0,-4.7,i,-5.4,5.6,3.3,-11.2,6.7,
CCCc1ccc2oc(C(=O)N3CCC(O)CC3)c(C)c2c1,-18.5,-1.0,i,·,1.7,0.9,-31.8,-9.8,
COc1cccc(C(=O)OCCN2CCOCC2)c1,-8.3,7.1,i,-14.4,-1.9,0.0,-2.3,·,

# Next section, starting with the last 7 of the part before.
SMILES,eIF4H inh,PABP FP inh,Rce1 inh,CSC inhib,MT1-MMP act inh,MT1-MMP act inh RFP,Env fusion inh,UUG fidelity,others
CCCCCOc1cccc(C2C(C(=O)c3cccs3)=C(O)C(=O)N2CCN2CCOCC2)c1 (stereo unspecified),·,·,i,-13.6,2.7,3.8,11.2,·,
O=C(CCCCCNc1nc(=S)[nH]c2ccccc12)N1CCN(c2ccccn2)CC1,-11.3,-6.0,i,-6.5,0.3,-7.8,21.2,-18.6,
Cc1nc(COc2ccccc2Cl)sc1-c1ccnc(N)n1,0.0,-5.3,i,13.0,-1.5,-6.5,-14.2,·,
O=S(=O)(Nc1ccncc1Cl)c1cccc(Cl)c1Cl,-6.4,4.3,i,-5.1,-1.7,-2.0,8.2,·,
CC(O)[C@H]1CNC(=O)C(=O)N1CCc1cc(C(F)(F)F)cc(C(F)(F)F)c1 (stereo partly specified),1.0,-4.7,i,-5.4,5.6,3.3,-11.2,6.7,
CCCc1ccc2oc(C(=O)N3CCC(O)CC3)c(C)c2c1,-18.5,-1.0,i,·,1.7,0.9,-31.8,-9.8,
COc1cccc(C(=O)OCCN2CCOCC2)c1,-8.3,7.1,i,-14.4,-1.9,0.0,-2.3,·,
Cc1ccc(C)c(-c2cc(C(=O)NN3CCOCC3)c3ccccc3n2)c1,-12.5,-8.3,i,-5.3,10.1,3.2,-12.5,·,
CC1CCN(C(=O)Cn2cc(S(=O)(=O)CC(=O)N3CCOCC3)c3ccccc32)CC1,3.8,-3.0,i,-7.8,-4.4,1.1,-2.1,-0.1,
COC(=O)c1ccc2c(c1)C(=O)/C(=C/c1ccc(C)cc1)O2,-2.1,-3.4,i,17.2,8.1,-2.9,-16.3,-0.1,
CCCCN1CC(COCc2ccccc2)Oc2cc(Br)ccc2S1(=O)=O (stereo unspecified),·,·,·,·,-5.6,-10.1,13.8,-9.4,
COc1cc([N+](=O)[O-])cc(/C=N/NC(=O)c2ccc(C)nc2)c1O,6.2,4.2,i,12.9,0.6,1.9,·,·,
COc1cc(OC)nc(Oc2ccccc2C(=O)Oc2cccc(C)c2)n1,-5.5,-2.4,i,·,-2.0,-1.1,·,-7.7,
COc1ccc(/C=N\NC(=O)CNC(=O)C2COc3ccccc3O2)cc1[N+](=O)[O-] (stereo unspecified),46.4,-7.5,i,-1.2,1.8,1.3,0.9,5.5,
CC1(C)CNC(=S)N1Cc1ccccc1,·,·,·,·,-0.5,2.2,13.0,-16.2,
Cc1cccc(N(CC(=O)NC2CCCCC2)C(=O)CCC(=O)Nc2nccs2)c1,-9.4,-5.4,i,-18.9,0.4,1.7,6.8,-19.5,
CC1(c2ccc3noc(-c4cccc(F)c4)c3c2)OCCO1,-2.3,-3.8,·,14.3,-1.5,-8.9,16.6,0.0,
COc1ccc(S(=O)(=O)N2CCOC2CNC(=O)C(=O)NCCc2ccc(S(N)(=O)=O)cc2)cc1 (stereo unspecified),-2.0,-0.1,i,0.6,1.3,0.6,3.4,4.0,
OC1(Cc2ccccc2)CCNCC1,-7.2&1.1,1.9&-3.5,i,-2.5,-5.0,0.0,3.8,-25.2,
COc1ccc(N2C(=O)C3[C@@H](C2=O)C2(Cl)C(Cl)=C(Cl)C3(Cl)C2(OC)OC)cc1 (stereo partly specified),-7.3,-9.7,i,-4.2,-0.4,-2.4,0.5,-1.2,
Cc1ccc(Cc2cnc(NC(=O)/C(C#N)=C/c3ccc(-c4ccccc4[N+](=O)[O-])o3)s2)cc1,54.0,41.2,i,4.7,8.1,1.6,·,-5.9,eIF4H inh retest=17.4;PABP FP inh retest=29.9
Cc1ccc(C)c(NC(=O)C2CC(O)CN2C(=O)OCc2ccccc2)c1 (stereo unspecified),-6.2,9.0,i,5.5,1.7,4.7,·,-16.1,
Cc1ccc(S(=O)(=O)N2CCN(c3ncnc4sccc34)CC2)cc1,-6.7,-0.6,i,-1.6,-7.6,-26.3,·,19.9,
CCOC(=O)N1CCN(c2c(NCCCOC(C)C)c(=O)c2=O)CC1,5.3,-3.5,i,-11.0,-2.0,1.2,-19.4,-3.2,
Cc1cccc(Oc2cnn(C(C)(C)C)c(=O)c2Cl)c1,3.8,-8.4,i,5.0,-3.7,-6.2,14.3,-9.5,
COc1cccc(OC)c1OCCNCCO,-2.1,4.5,i,-15.9,1.5,7.1,·,-6.2,
CCCN1CCC(NC(=S)Nc2ccc(S(N)(=O)=O)cc2)CC1,-10.3,-8.3,i,-7.9,0.0,1.1,-8.5,-27.7,
CCCC(=O)N(CCN1CCOCC1)c1nc2c(C)ccc(C)c2s1,-12.8,-5.7,i,-7.1,-5.3,-0.1,8.1,8.8,
CCC(=O)Nc1c(-c2ccc(C)cc2)c(=O)c2ccccc2n1C,-4.1,6.8,i,10.0,0.9,4.1,-3.1,-20.2,
COc1ccc(N2CCN(C(=O)CCN3C(=O)C4C5C=CC(C5)C4C3=O)CC2)cc1 (stereo unspecified),-2.8,22.6,i,-9.9,1.3,-0.5,15.0,·,
CCCCN(C(=O)c1ccc(COc2ccccc2)o1)c1c(N)n(CC(C)C)c(=O)[nH]c1=O,·,·,·,-8.7,-5.7,-0.1,-5.1,-12.8,
CCCOP(=O)(OCCC)C(NC(=O)C(C)(C)C)c1ccccc1 (stereo unspecified),-1.1,-0.4,·,-7.5,6.5,8.1,-3.7,·,
CC(=O)NC(C)(c1ccccc1)c1nc(/C=C/c2ccccc2)cs1 (stereo unspecified),·,·,·,·,4.8,-0.5,-83.7,-6.6,
COc1ccc(CNC2CCCc3ccccc32)cc1OC (stereo unspecified),8.5,-2.4,i,-1.5,-5.3,-1.2,·,-16.7,
COc1ccc(N2CCN(CC(=O)Nc3nc(C)cs3)CC2)cc1,5.3,-1.2,i,2.0,2.4,1.9,-5.1,10.6,
O=C(NCc1ccc2c(c1)OCO2)C1CCN(S(=O)(=O)c2ccc(F)cc2)CC1,8.2,-4.5,i,-16.6,-2.7,-1.6,-4.7,3.9,
COc1ccc(OCCNC(=O)C(c2ccccc2)c2ccccc2)cc1,-8.7,1.3,i,3.6,7.5,-0.5,·,-0.5,
CCN1CCc2c(OCc3ccc(C)cc3)cccc2C1=O,1.7,2.6,i,5.5,1.4,1.8,4.9,·,
O=C(Nc1ccc(N2CCCC2)c(Cl)c1)c1cccnc1,48.4,3.1,i,3.3,-3.2,-2.3,·,-17.4,
CCC(C)CCN1C(N(C)C)=NC[C@@H]1Cc1ccccc1 (stereo partly specified),·,·,·,-8.8,5.3,5.1,0.4,-11.0,
Cc1ccc(CNc2nc3c([nH]2)c(=O)n(C)c(=O)n3C)cc1,-4.3,-4.3,i,2.1,0.0,-7.8,·,-15.4,
CC(=O)n1cc([C@@H]2C=C(C(=O)N3CCN(Cc4ccc5c(c4)OCO5)CC3)O[C@H](OCCCCO)C2)c2ccccc21,-5.3,4.9,i,-0.2,3.4,-2.7,-5.8,30.5,
O=C(Nc1ccc(S(=O)(=O)N2CCOCC2)cc1)C1CC(=O)N(c2ccc(F)cc2)C1 (stereo unspecified),7.0,-7.3,i,15.4,-2.0,-0.5,-9.0,-3.6,
O=C(CSc1nc(-c2ccccc2)nc2c1CCCC2)N1CCOCC1,-4.8,-4.0,i,-0.3,-2.0,-2.8,·,·,
COc1ccccc1N(CN1CCCC1=O)C(=O)COc1ccccc1,4.1,1.2,i,-11.1,-2.1,-0.6,32.6,-14.6,
Cc1ccc(C(=O)N/N=C\c2cccs2)cn1,-1.6,-2.0,i,-3.9,4.5,5.5,-20.3,·,
CC(=O)c1ccc(OCCCC(=O)Nc2ccc(C)c(S(=O)(=O)N3CCOCC3)c2)cc1,·,·,·,·,2.2,-14.8,34.9,2.1,
COc1ccc(C(C)=O)cc1COC(=O)c1cc(C)oc1C,-14.2,1.4,i,2.1,-0.8,-2.1,·,·,
CCOCCCNC(=O)CN1C(=O)COc2ccc(S(=O)(=O)N3CCOCC3)cc21,0.6,-3.4,i,·,-4.9,-1.0,-5.9,-20.3,
CC(=O)Nc1ccc(C(=O)OCC(=O)N2CCCC2=O)cc1,·,·,·,-1.3,1.4,1.6,10.7,-16.8,
O=C(Nc1ccc2nc3n(c(=O)c2c1)CCCCC3)c1ccccc1Cl,-0.3,-1.7,i,-7.8,-6.0,-8.3,-7.3,-24.3,
CCCCCC(O)CCCC(=O)O (stereo unspecified),·,·,·,·,5.4,10.0,9.3,-9.8,
COCCNC(=O)C(OC(=O)c1nsc(Cl)c1Cl)C(C)C (stereo unspecified),-0.8,-2.5,i,-1.2,3.8,4.3,12.5,·,
O=C(N/N=C/c1coc2ccc(Cl)cc2c1=O)c1cc(O)cc(O)c1,0.1,-10.9,i,-3.6,-11.3,-3.6,17.2,-7.9,
O=S(=O)(c1ccccc1)c1nc(-c2ccccc2Cl)oc1NCCCN1CCOCC1,·,·,·,-10.4,0.5,-1.1,5.1,-4.0,
N#C/C(=C/c1ccc(-c2ccccc2[N+](=O)[O-])o1)C(=O)NCCN1CCCCC1,25.1,13.1,i,-7.5,2.3,0.1,-23.8,·,
O=C(CC1C(=O)NCCN1C(=O)Nc1ccc(F)cc1F)Nc1ccc(F)cc1 (stereo unspecified),-11.7,10.0,i,-20.0,-0.8,2.4,2.4,·,

# Assay outcomes: PubChem, several laboratories
